S aureus helic – inhibitors of S. aureus replicative helicase, primary screen, biochemical, fluorescence unwinding readout; purified S. aureus helicase, fluorescence unwinding assay; about half of the hits fall short of the stated cut; inhibition, %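 (tested at about 80 µM)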; replicative DNA helicase (DnaC/DnaB), Staphylococcus aureus; 0.05% of 120,000 active;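 active means both duplicates at 50% or more, or one of them with a favoured structure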;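 further: 0% = mean of negative control wells and 100% = mean of positive control wells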
MgrA DNA FP – S. aureus MgrA activity modulators, primary screen, biochemical, S. aureus Newman, fluorescence polarization | MgrA-DNA binding | inhibition, %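 (about 10 µg/mL by stock and volumes)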 | 0.13% of 84,000 active | AID 602314, 2012;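 active means above 50% in either of two replicates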;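 further: 0% = protein plus DNA without compound and 100% = DNA alone without protein; higher means less MgrA bound to DNA so lower polarization; one replicate is shown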
* marks the source's active call; other numbers are inactive results; . = not tested or not shown. An excerpt (hit frequency here may not be typical).

entry	S aureus helic	MgrA DNA FP	canonical_smiles
1	13	0.7	CCOC(=O)/C(C#N)=C\c1ccc(-c2cccc(C(F)(F)F)c2)o1
2	3	-2.5	COC(=O)CSc1nc2ccccc2n1-c1ccc(C)cc1
3	5	.	O=C(O)Cn1cc2c(n1)CCCCC2
4	15	.	Cn1nc(C(=O)N2CCCC2c2nc3ccccc3s2)c2ccccc2c1=O (stereo unspecified)
5	-20	.	c1ccc(SCc2cn3cccnc3n2)cc1
6	19	5.8	CCCc1ccc(OC(=O)c2cccs2)cc1
7	-19	.	COc1cccc(C(=O)Cn2c(=O)n(CCC(=O)NC3CCCC3)c(=O)c3cc(OC)c(OC)cc32)c1
8	-8	.	CCc1noc(C)c1C(=O)OCC(=O)c1ccccc1OC
9	15	1.2	CN(C)CN1C(=O)C(=Nc2ccc3ccccc3c2)c2ccccc21
10	-8	.	O=C(O)Cn1cc(C(F)(F)F)ccc1=O
11	1	-2.9	CC(C)=NNC(=O)c1nnn(-c2nonc2N)c1CN1CCOCC1
12	2	.	O=c1c2ccccc2nnn1CSc1nncn1-c1ccccc1
13	12	.	COc1ccc(CC(=O)NCc2nn(-c3ccccc3)nc2C)cc1OC
14	.	-1.4	CSC(=CC(=O)c1ccccc1F)SC
15	15	-1.8	Cc1ccc(Cn2c(-c3cscn3)nc3ccccc32)cc1
16	.	-4.9	COC(C(=O)O)C(=O)Nc1cc(Cl)cc(Cl)c1 (stereo unspecified)
17	11	.	CCc1c(C)n2nc(C)cc2[nH]c1=O
18	.	-0.8	C=CCn1c(COc2c(Br)cc(C)c3c2CCC3)n[nH]c1=S
19	6	0.0	O=C(COc1ccccc1)NCC1COc2ccccc2O1 (stereo unspecified)
20	4	.	CN(Cc1ccco1)c1nc(-c2ccc(Cl)cc2)nc2ccccc12
21	34	.	Cn1cc(CC(=O)Nc2ccc(F)cc2F)c2ccccc21
22	12	0.0	CN1C(=O)/C(=C\C=C\c2ccc(N(C)C)cc2)SC1=S
23	13	.	COc1ccccc1-n1c(=O)c2cc3c(=O)n(-c4ccccc4OC)c(=O)c3cc2c1=O
24	-1	0.9	CC(C)OCCn1cnc2sc3c(c2c1=O)CCCC3
25	1	-2.5	O=C(Nc1nccs1)c1ccccc1-c1ccccc1
26	4	.	CCCOc1ccccc1N1C(=O)CC(N(O)c2ccccc2)C1=O (stereo unspecified)
27	.	-2.4	O=C(Nc1cccc(NC(=O)c2ccco2)c1)c1ccc2c(c1)OCCO2
28	-1	-1.4	O=C(CC(=O)Nn1cnnc1)Nn1cnnc1
29	.	-0.7	COc1cc(-c2nc3ccccc3c(=O)n2NC(=O)c2ccc(Cl)cc2)cc(OC)c1OC
30	13	.	CC(C)NC(=O)CCc1c[nH]c2ccccc12
31	6	-0.2	Cc1cc(SCCC(=O)O)nc2c(C)cccc12
32	-16	.	O=C(O)c1cccc(OCc2cscn2)c1
33	-9	.	O=C(NN1CCOCC1)c1cccc2ccccc12
34	3	.	CCCc1c(C(=O)NNc2ccccc2OC)cnn1-c1ccccc1
35	.	-0.9	Cn1c(=O)c(C#N)c(-c2cccs2)n2cnnc12
36	.	0.0	CC(C)(C)OC(=O)N1CCC(C(N)=O)CC1
37	-138	7.0	Oc1c(C=NC2CCCCC2)[nH]c2ccc(Br)c(Cl)c12
38	10	1.1	O=C1CSC2(CCCCC2)N1c1ccc(Cl)cc1
39	.	0.8	O=C(OCCSc1ccccn1)c1ccccc1
40	6	-0.2	O=C(CSc1oc(-c2ccco2)nc1S(=O)(=O)c1ccccc1)NCC1CCCO1 (stereo unspecified)
41	7	-3.5	COc1ccc(OC)c(NC(=O)CSc2nnc(C3CCCCC3)o2)c1
42	5	.	CCOc1ccc(CN(CCO)CCO)cc1C(=O)OC
43	9	-1.9	NC(=O)c1oc2ccccc2c1NC(=O)c1ccccc1
44	9	.	O=C(ON=C(c1cccs1)c1cccs1)c1ccc(Cl)cc1
45	.	-2.0	Nc1ccccc1Sc1ccc(Cl)cc1[N+](=O)[O-]
46	19	0.9	CCC(C(=O)NC(C)C)n1c2ccccc2c2nc(=O)cc(C)n21 (stereo unspecified)
47	-16	-0.2	O=C(COC(=O)Cc1ccc(Cl)cc1)Nc1ccccc1
48	0	.	CCn1c(/N=C/c2ccccc2Cl)nc2ccccc21
49	-14	-4.8	CC(Nc1nncc(=O)[nH]1)c1ccccc1 (stereo unspecified)
50	-11	-1.4	CCOC(=O)c1c(C)n(CC)c2ccc(O)cc12
51	.	0.4	COC(=O)c1ccc2nc[nH]c2c1
52	1	0.7	CCC(=O)N(Cc1cccnc1)Cc1cc2cc(OC)ccc2[nH]c1=O
53	4	0.3	COc1ccc(NC(=O)c2cn3ccc(C)cc3n2)cc1
54	.	-3.4	O=C(O)CCCc1ccc2c(c1)OCCO2
55	10	-0.2	Cc1cc(N2C(=O)c3c(c(C)n(C)c3C)C2C(=O)NC2CCC(C)CC2)ccc1Br (stereo unspecified)
56	.	0.0	COC(=O)c1ccccc1NC(=O)c1c(-c2ccccc2Cl)noc1C
57	-6	.	Cc1ccc(NC(=O)CN(C)CC(=O)Nc2ccccc2C(=O)NC2CCCC2)cc1
58	5	.	O=C(CN1c2ccccc2S(=O)(=O)c2ccccc21)NCc1ccccc1
59	6	-3.4	Cc1ccc(NCCO)cc1
60	.	-0.7	COc1ccc(Br)c(C(=O)NC(C)(C)CO)c1

(more compounds)
entry	S aureus helic	MgrA DNA FP	canonical_smiles
61	.	0.9	N#CCC(=O)Nc1ccccn1
62	-12	-0.3	CCCCCCSc1ncc(C#N)c(N)n1
63	-6	-0.1	O=C(/C=C/c1ccco1)OCc1c(Cl)cccc1Cl
64	.	-1.6	O=C(NCc1ccc(S(=O)(=O)NCc2ccccc2)s1)c1ccccc1
65	-2	0.2	CN1CCN(c2ccc(NC(=O)c3cccc(Cl)c3)cc2)CC1
66	7	.	CC(NC(=O)c1ccco1)C12CC3CC(CC(C3)C1)C2 (stereo unspecified)
67	10	3.1	CC12CC(c3cc(Br)cc(Br)c3O1)C(C(=O)c1ccccc1)C(=O)N2 (stereo unspecified)
68	4	-3.1	COC(=O)C1=NN(c2ccccc2)C2C(=O)N(c3ccccc3OC)C(=O)C12 (stereo unspecified)
69	1	-1.1	N#CC(C#N)=C(Nc1ccccc1Cl)SCc1cccc(F)c1
70	.	-0.1	COc1cc(NC(=O)c2ccc3snnc3c2)cc(OC)c1
71	13	-0.9	COC(=O)c1cc2oc3ccccc3c2n1Cc1nc(-c2ccccc2)oc1C
72	.	2.4	CCOC(=O)Cn1nc(C)c(Br)c1C
73	-23	0.6	O=C(N/C=C\n1cnc2cc(C(F)(F)F)ccc21)c1cc2c(s1)CCC2
74	-15	1.5	COc1ccccc1N1CCN(CCCNC(=O)c2nnc(Cc3ccccc3Cl)o2)CC1
75	.	-1.4	O=C1c2cccc3cccc(c23)C(=O)N1CCc1ccccn1
76	-6	.	Cc1nn(-c2ccccc2)c2c1CC(C#N)(C(=O)c1ccc(Cl)cc1)C1CCCN21 (stereo unspecified)
77	2	.	C=CCn1c(SCc2cc(=O)oc3cc(O)ccc23)nnc1-c1ccccc1OC
78	10	-0.6	COc1cc(C2SCC(C(=O)O)N2C(C)=O)cc(Br)c1O (stereo unspecified)
79	9	-1.3	O=C(O)CCC(=O)Nc1ccncc1
80	9	0.8	Cc1cc(Oc2ccc(=O)n(C)n2)nc(SCC(N)=O)n1
81	14	-1.0	CC(C)(C)c1ccc(C(=O)Nc2cccc(-c3cn4cccnc4n3)c2)cc1
82	17	-2.6	COc1ccc(-n2[nH]c(C)c(C(C)=NCCN3CCOCC3)c2=O)cc1
83	17	-4.1	C=CCn1c(SC)nnc1-c1ccc(OC)c(OC)c1
84	10	-0.4	CCC(CC)C(=O)Nc1ccc(C)cc1C
85	-6	.	CC(C)(C)c1ccc(NC(=O)CCC(=O)O)cc1
86	.	-1.2	CC(C)S(=O)(=O)c1csc(C(=O)NN)c1Cl
87	13	3.4	O=C(Nc1cccc(Cl)c1)Nc1ccccc1C(=O)N1CCCCC1
88	7	.	Cc1nn(C(=O)c2cccc(Cl)c2)c(N)c1-c1ccccc1
89	.	3.7	CN1C(=O)/C(=C2\SC(=S)N(NC(=O)c3ccccc3)C2=O)c2cc(Br)ccc21
90	7	.	O=C(OC1CCOC1=O)c1ccc(S(=O)(=O)N2CCCC2)cc1 (stereo unspecified)
91	-66	0.1	COc1cc(C2=NOC(=O)/C2=C\c2ccc(Cl)cc2Cl)cc(OC)c1OC
92	14	-0.3	COc1cc(/C=C2\CCc3ccccc3C2=O)ccc1OCCC(C)C
93	22	.	CCCN(CCC)Cc1cn2c(-c3ccc(OC)cc3)nnc2s1
94	.	-4.8	Cn1nc(NC(=O)C2CCC2C(=O)O)c2c(F)cccc21 (stereo unspecified)
95	3	-0.8	COc1cc(Br)c(CC(=O)N2CCOCC2)cc1OC
96	7	-1.9	CCN(CC)CCn1c(SCC(=O)Nc2cccc(OC)c2)nc2c(sc3ccccc32)c1=O
97	11	-0.2	COc1ccc(-c2cc(C(F)F)n3ncc(C(=O)Nc4cc(C)on4)c3n2)cc1
98	.	-0.9	Cc1ccc(-c2nc(-c3ccc(OCC(F)(F)F)nc3)no2)cc1
99	14	6.2	CCOC(=O)N1CCN(Cc2nc3c(c(=O)n(C)c(=O)n3C)n2CC)CC1
100	2	-0.1	O=C1S/C(=C/c2ccccc2)C(=O)N1c1ccccc1
101	21	.	CCSc1nnc2c(n1)OC(c1cccc(OC)c1OCC(=O)O)Nc1ccc(Br)cc1-2 (stereo unspecified)
102	-2	16	CC1=C(NN(C)c2cccc(Cl)c2)C(=O)N(C2CCCCC2)C1
103	.	-0.6	CC(C)n1nnc2cc(C(=O)O)ccc21
104	-12	-2.2	CC1(C)OC(=O)C1C(=O)O (stereo unspecified)
105	-4	.	N#Cc1ccc(-c2csc(N)n2)cc1
106	-30	-1.0	CS(=O)(=O)c1nc2ccccc2n1Cc1ccccc1
107	5	2.0	c1ccc(-n2nnnc2NC2CCCCCC2)cc1
108	11	.	CC(C)(C)NC(=O)CSC1=C(C#N)C(c2ccco2)C2=C(CCCC2=O)N1 (stereo unspecified)
109	.	-2.3	CN1C2CCC1CC(NC(=O)c1c(F)cccc1F)C2 (stereo unspecified)
110	-42	.	CCc1cccc(C)c1NC(=O)C(C)C
111	0	-7.0	CCN(CC)Cc1cc(C(C)(C)C)oc1C(=O)O
112	15	3.4	COc1cc(/C=C/C(=O)Nc2ccc(S(=O)(=O)N3CCCC3)cc2)cc(OC)c1OC
113	-11	.	Cc1ccc2c(c1)N(C(=O)CN1C=NS(=O)(=O)c3ccccc31)CCO2
114	-17	.	N#CC(C#N)=CNc1c(F)cccc1Cl
115	9	.	CCc1noc(C)c1C(=O)Nc1ccc(OC(F)F)cc1
116	3	.	Cc1nc2c(c(C)nn2-c2ccccc2)c(C)c1CCC(=O)NC(C)c1ccccc1 (stereo unspecified)
117	6	.	O=C(OCCCCN1C(=O)c2ccccc2C1=O)c1ccc(Br)o1
118	-52	.	CC/C(=N\NC(=O)c1cccnc1)c1cc(F)ccc1O
119	-11	-2.5	Cc1ccc(N=Cc2ccc(F)c(F)c2)cc1C
120	12	.	O=C(NC1CCN(Cc2ccccc2)C1)c1nn(-c2ccccc2)c(=O)c2ccccc12 (stereo unspecified)

(list continues)
entry	S aureus helic	MgrA DNA FP	canonical_smiles
121	28	.	CS(=O)c1scc2c1C(=O)CC(C)(C)C2 (stereo unspecified)
122	1	1.4	O=C1CC(c2ccccc2)Cc2nc(N3CCc4ccccc43)ncc21 (stereo unspecified)
123	-20	.	COC(=O)c1c[nH]n2c(=O)cc(C3CCNCC3)nc12
124	6	.	Cc1ccc(C(=O)OCC(=O)NC2CCCC2)cc1
125	20	-1.2	CN1CCCc2cc(C#N)c(=O)[nH]c21
126	-6	.	Cc1nn(-c2ccccc2)c(N2CCCC2)c1/C=N/NC(=O)Cn1ccc(C(F)(F)F)n1
127	2	0.7	Cn1c(O)c(C2=c3ccccc3=NC2=O)[nH]c1=S
128	-6	.	CCOC(=O)COc1ccc2c(c1)C(=O)CC1(CCN(C(C)=O)CC1)O2

Nothing new here: 20 of the compounds above.
entry	S aureus helic	MgrA DNA FP	canonical_smiles
106	-30	-1.0	CS(=O)(=O)c1nc2ccccc2n1Cc1ccccc1
107	5	2.0	c1ccc(-n2nnnc2NC2CCCCCC2)cc1
108	11	.	CC(C)(C)NC(=O)CSC1=C(C#N)C(c2ccco2)C2=C(CCCC2=O)N1 (stereo unspecified)
109	.	-2.3	CN1C2CCC1CC(NC(=O)c1c(F)cccc1F)C2 (stereo unspecified)
110	-42	.	CCc1cccc(C)c1NC(=O)C(C)C
111	0	-7.0	CCN(CC)Cc1cc(C(C)(C)C)oc1C(=O)O
112	15	3.4	COc1cc(/C=C/C(=O)Nc2ccc(S(=O)(=O)N3CCCC3)cc2)cc(OC)c1OC
113	-11	.	Cc1ccc2c(c1)N(C(=O)CN1C=NS(=O)(=O)c3ccccc31)CCO2
114	-17	.	N#CC(C#N)=CNc1c(F)cccc1Cl
115	9	.	CCc1noc(C)c1C(=O)Nc1ccc(OC(F)F)cc1
116	3	.	Cc1nc2c(c(C)nn2-c2ccccc2)c(C)c1CCC(=O)NC(C)c1ccccc1 (stereo unspecified)
117	6	.	O=C(OCCCCN1C(=O)c2ccccc2C1=O)c1ccc(Br)o1
118	-52	.	CC/C(=N\NC(=O)c1cccnc1)c1cc(F)ccc1O
119	-11	-2.5	Cc1ccc(N=Cc2ccc(F)c(F)c2)cc1C
120	12	.	O=C(NC1CCN(Cc2ccccc2)C1)c1nn(-c2ccccc2)c(=O)c2ccccc12 (stereo unspecified)
121	28	.	CS(=O)c1scc2c1C(=O)CC(C)(C)C2 (stereo unspecified)
122	1	1.4	O=C1CC(c2ccccc2)Cc2nc(N3CCc4ccccc43)ncc21 (stereo unspecified)
123	-20	.	COC(=O)c1c[nH]n2c(=O)cc(C3CCNCC3)nc12
124	6	.	Cc1ccc(C(=O)OCC(=O)NC2CCCC2)cc1
125	20	-1.2	CN1CCCc2cc(C#N)c(=O)[nH]c21
